Screening results from PubChem BioAssay.
Marburg entry inh = qHTS for inhibitors of binding or entry into cells for Marburg Virus; Marburg virus pseudotyped entry inhibition, cell reporter; control for the full effect not named in the record; about a third of the inactives were read at about 46 µM; Potency, µM (top dose mostly 37.8 µM), without a hit: at the highest dose activity change, negative = inhibition, usual class: inhibitors; 300,000 tested, 1.8% active; active = well fitted inhibition curve with a large enough effect; inconclusive = small, poorly fitted or top-dose-only effect, or effect the other way; inactive = flat fitted curve, though single readings scatter; tested in HEK293 cells; about a fifth of its hits are not listed in these tables; also: % is scaled to controls: 0 for no effect and ±100 for the full control effect; luciferase read-out
StopGo reporter = High Throughput Screening for Foot and Mouth Disease Virus Antivirals; human cells with a luciferase reporter of 2A StopGo recoding; control for the full effect not named in the record; Potency, µM (series often up to 57.9 µM), inactives show at the top dose signal change, negative = less light; 410,000 tested, 1.2% active; AID 1159524, 2015; active = well fitted falling curve with a large enough effect; inconclusive = small, poorly fitted or top-dose-only effect; inactive = no such curve, though single readings can be large or run the other way; tested in HEK293T cells; also: % is scaled to controls: 0 for no effect and ±100 for the full control effect; nearly all actives have a fitted effect of over 45% in size; luciferase light after 4 h
Cruzain Triton = qHTS Assay for Promiscuous and Specific Inhibitors of Cruzain (with detergent); Cruzipain (Trypanosoma cruzi), P25779; purified cruzain, Z-FR-AMC fluorescence, 0.01% Triton; Potency, µM, for the others: max response, negative = inhibition, actives largely listed as inhibitors; 200,000 tested, 0.43% active; active = well fitted curve in the direction sought with a large enough effect; inconclusive = small, poorly fitted or top-dose-only effect, or another doubt; inactive = no such curve, though single readings can be large; an effect the other way counts as inactive or inconclusive;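 also: plate controls were neutral wells for no effect and buffer without enzyme for full effect; nearly all actives have a fitted effect of over 40% in size; top concentration of the series not given in the record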
Target sequence (P25779 123-467 limits assumed): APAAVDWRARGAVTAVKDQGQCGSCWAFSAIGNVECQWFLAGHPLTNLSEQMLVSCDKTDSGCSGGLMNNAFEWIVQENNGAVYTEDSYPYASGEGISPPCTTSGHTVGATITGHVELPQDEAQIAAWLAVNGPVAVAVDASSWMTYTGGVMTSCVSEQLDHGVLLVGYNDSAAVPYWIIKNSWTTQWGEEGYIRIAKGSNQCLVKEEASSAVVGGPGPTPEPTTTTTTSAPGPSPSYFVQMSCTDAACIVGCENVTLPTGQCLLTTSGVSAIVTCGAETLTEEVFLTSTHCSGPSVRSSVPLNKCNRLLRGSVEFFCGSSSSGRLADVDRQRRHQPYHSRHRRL
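Cruzain (1.5 nM) preincubated 15 min at RT with compound in 100 mM sodium acetate pH 5.5, 5 mM DTT, 0.01% Triton X-100. Reaction started with 2 uM Z-FR-AMC; AMC fluorescence (ex 360/em 450 nm) change over 60 s gave rate.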
NS1 function inh = qHTS Assay for Inhibitors of Influenza NS1 Protein Function; S. cerevisiae slowed by influenza A NS1, growth recovery by OD600; Potency, µM (titrated, usually from 46.1 µM), for inactives: at the top dose activity, positive = more growth; 270,000 tested, 0.4% active; also: actives are rising curves; nearly all actives have a fitted effect of over 50% in size
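S. cerevisiae expressing influenza A NS1, grown in glucose, washed, then diluted 1:100 into pH 6.0 -URA galactose medium with 23 nl compound. Growth recovery read as OD600; NS1-free strain serves as control.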
RE007 growth inh = qHTS Assay for Inhibitors of the HIV-1 protein Vpr; S. pombe RE007 Vpr strain, BacTiter-Glo ATP luminescence, 24 h; control for the full effect not named in the record; Potency, µM (top dose mostly 92.2 µM), for the others: at the highest dose activity change, negative = less growth; 360,000 tested, 0.21% active; active = well fitted falling curve with a large enough effect; inconclusive = small, poorly fitted or top-dose-only effect; inactive = no such curve, though single readings can be large or run the other way;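 also: % is scaled to controls: 0 for no effect and ±100 for the full control effect; nearly all actives have a fitted effect of over 50% in size; the assay follows cell death caused by Vpr and the record does not say whether a fall means rescue or toxicity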
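Fission yeast RE007 carrying one integrated HIV-1 vpr copy, seeded at OD 0.01 in PMG+AL medium with 23 nL pinned compound. Grown 24 h at 30 degrees; viability read by BacTiter-Glo luminescence after 5 min.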
Lassa entry inh = qHTS for Inhibitors of binding or entry into cells for Lassa Virus; Lassa virus pseudotype entry inhibition, cell reporter; control for the full effect not named in the record; AID 540256, 2011; Potency, µM (doses to about 37.9 µM), for the others: top-dose activity change, negative = inhibition, usual class: inhibitors; 300,000 tested, 1.2% active; active means well fitted inhibition curve with a large enough effect; inconclusive means small, poorly fitted or top-dose-only effect, or effect the other way; inactive means flat fitted curve, though single readings scatter; tested in HEK293 cells; also: % is scaled to controls: 0 for no effect and ±100 for the full control effect; nearly all actives have a fitted effect of over 50% in size; luciferase read-out
SARS PLpro yeast = qHTS of Yeast-based Assay for SARS-CoV PLP; S. cerevisiae expressing SARS-CoV PLpro, growth rescue; control for the full effect not named in the record; Potency, µM (doses to about 32.9 µM), inactives show top-dose activity, positive = growth rescue; 330,000 tested, 0.19% active; AID 485353, 2010; also: 0% is about no effect; nearly all actives have a fitted effect of over 55% in size; growth read by luminescence after 48 h
Cruzain inh noDet = qHTS Assay for Promiscuous and Specific Inhibitors of Cruzain (without detergent); 200,000 tested, 2.3% active; Cruzipain (Trypanosoma cruzi), P25779; purified cruzain, Z-FR-AMC fluorescence, no detergent; Potency, µM, for inactives: max response, negative = inhibition, actives largely listed as inhibitors; AID 1476, 2009; active = well fitted curve in the direction sought with a large enough effect; inconclusive = small, poorly fitted or top-dose-only effect, or another doubt; inactive = no such curve, though single readings can be large; an effect the other way counts as inactive or inconclusive;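 also: plate controls were enzyme without inhibitor for no effect and buffer without enzyme for full effect; nearly all actives have a fitted effect of over 40% in size; top concentration of the series not given in the record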
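Purified cruzain at 1.5 nM, pre-incubated 15 min with compound at room temperature in 100 mM sodium acetate pH 5.5, 5 mM DTT, 0.00005% Triton X-100. Reaction started with 2 uM Z-FR-AMC; AMC fluorescence increase over 60 s gives rate.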
Starred values were filed as active, the others as inactive; ? = inconclusive; . = no result given; & = joins results of further samples; [ ] = dose if it differs, or a comment. Unless noted, calls follow the shape of the dose curve; as a rule, active means well fitted rising curve with a large enough effect; inconclusive means small, poorly fitted or top-dose-only effect; inactive means no such curve, though single readings can be large or run the other way. Potency is read from the fitted curve at half-maximal effect.

SMILES	Marburg entry inh	StopGo reporter	Cruzain Triton	NS1 function inh	RE007 growth inh	Lassa entry inh	SARS PLpro yeast	Cruzain inh noDet
Cc1cc(Cl)ccc1OCc1nnc(-c2ccccc2C)o1	23%	56%[activator]	.	.	16%	16%[46.1 µM]	2%	.
CCSc1nnc(NC(=O)COc2ccccc2[N+](=O)[O-])s1	?	?	.	.	-8%	18%[46.1 µM]	0%	.
CCCNC(=O)Cn1c(=O)/c(=C\c2ccc(-c3ccc([N+](=O)[O-])cc3)o2)s/c1=C\C(=O)C(C)(C)C	-6%	-9%	-7.5%	28%	-9%	?	13%	?
N#Cc1ccccc1Sc1ccccc1C(=O)Nc1ccc2ccccc2c1	.	9%	-7.0%	?	7%	.	14%	?
O=C(CSc1ncn[nH]1)c1ccc2c(c1)OCCO2	8%	42%[activator]	-10%	1%	13%	4%	-2%	-15%
Cc1ccc(OCC(=O)n2cnnc2N)c(C)c1	.	.	-1.5%	15%	.	.	1%	0%
COCc1nnc(NC(=O)C23CC4CC(CC(C4)C2)C3)s1	?	12%	.	.	-8%	1%[46.1 µM]	-5%	.
COc1cc2nc(COc3ccccc3[N+](=O)[O-])oc(=O)c2cc1OC	12%	-24%	-6.0%	1%	8%	6%	-16%	?
CSc1ccccc1NC(=O)c1cc2c(=O)n3ccccc3nc2s1	2%	-6%	.	4%	6%	?	9%	.
Cc1ccc(NC(=O)C(C)OC(=O)C2CC3CCCC(C2)C3=O)cc1S(=O)(=O)N1CCOCC1 (centres undefined)	20%	-1%	.	.	5%	0%	.	.
COC(=O)CCC(=O)c1ccn(S(=O)(=O)c2ccccc2)c1	.	-19%	.	3%	1%	.	-3%	.
O=C(COc1ccc(F)cc1)N1CCC(c2ccccc2)C1 (centres undefined)	15%	67%[activator]	0.1%	-8%	14%	-1%	-19%	0%
COc1ccc(CNc2cccc3[nH]c(C(F)(F)F)nc23)cc1	-18%[46.1 µM]	-25%	.	1%	4%	20%[46.1 µM]	-2%	.
CC1(C)CC(NC(=O)COc2ccc3ccccc3c2)CC(C)(C)N1	-18%	-7%	3.7%	-3%	1%	15%	7%	0%
COc1ccc2c(c1)c(C(=O)O)c(C)n2C(C)C	-7%[46.1 µM]	-16%	-0.6%	7%	1%	0%	23%	-1%
C=Cn1nc(C)c2ccccc2c1=O	?	-5%	2.3%	0%	4%	7%	-7%	0%
CCOc1ccccc1C(=O)Nc1c(C(=O)Nc2ccc(F)cc2)oc2ccccc12	?	-19%	-2.0%	.	.	?	.	9%
CC(C)Nc1nc(-c2cccnc2)nc(-c2ccc(Cl)cc2)c1C#N	-11%[46.1 µM]	-12%	.	-1%	7%	12%[46.1 µM]	-2%	.
O=C(O)CCN1C(=O)C(=C2CCCCCC2)SC1=S	-26%	-7%	-0.7%	-56%	-20%	-15%	1%	-2%
Cc1cc(C)c2ccc(Cl)cc2n1	.	-7%	.	-3%	-3%	.	0%	.
COc1cc(NC(=O)c2ccco2)c(OC)cc1NC(=O)CCC(=O)Nc1cc(C)ccc1C	?	-13%	5.3%	-14%	-2%	-11%	-2%	?
Cc1ccc(-c2nnc(N3CCOCC3)c3ccccc23)cc1S(=O)(=O)NCC1CCCO1 (centres undefined)	-16%	-15%	-4.6%	-19%	-6%	-22%	2%	?
COc1ccc(-c2nc3ccccc3c(=O)n2CCCN2CCOCC2)cc1	13%	.	-4.4%	-1%	7%	-4%	-1%	-20%
O=C(CN1C(=O)C2C3C=CC(C3)C2C1=O)N1CC(=O)N(CCc2ccccc2)C(=O)C1 (centres undefined)	20%	-19%	-15%	-27%	-7%	0%	3%	-2%
O=C(O)C1C2C=CC(C2)C1C(=O)NCCc1ccncc1 (centres undefined)	?	-27%	1.0%	6%	-12%	14%	-4%	-18%
(continued)
SMILES	Marburg entry inh	StopGo reporter	Cruzain Triton	NS1 function inh	RE007 growth inh	Lassa entry inh	SARS PLpro yeast	Cruzain inh noDet
CCCCC(Sc1nc(N)c(NC(=O)c2ccc(OCC)cc2)c(=O)[nH]1)C(=O)O (centres undefined)	28%[46.1 µM]	-11%	.	.	18%	8%	3%	.
COc1cc2nc(NC(=O)c3ccccc3)sc(=O)c2cc1OC	.	-23%	.	-2%	-7%	.	0%	.
COc1ccc(-n2c(SCC(=O)Nc3ccc4c(c3)OCO4)nc3ccccc3c2=O)cc1	-23%	-18%	1.1%	22µM*	11%	?	-17%	?
CC(=O)c1cccc(NC(=O)CCc2nnc3ccc(NCc4ccco4)nn23)c1	.	2%	.	1%	-14%	.	8%	.
FC(F)(F)c1ccc(-c2nnc(-c3cccnc3)o2)cc1	0%	26%	.	-14%	-10%	0%	-8%	.
Cc1nc(C)c(-c2ccc(SCC(=O)Nc3ccc(Br)cc3)nn2)s1	.	-17%	-8.8%	.	.	?	.	?
O=C(NCc1cccnc1)c1cccn1-c1ncc(C(F)(F)F)cc1Cl	0%[46.1 µM]	-1%	.	.	8%	1%	-2%	.
CCc1nnc(NC(=O)CSc2nnc(Cc3ccccc3)n2Cc2ccccc2)s1	-7%	-8%	-7.2%	-13%	8%	-3%	3%	13%
Cn1ncc2c(N3CCN(c4cccc(Cl)c4)CC3)ncnc21	.	16µM*	1.5%	.	.	?	.	-8%
CC(C)(C)c1ccc(OCC(=O)NCC2(N3CCOCC3)CCCCC2)cc1	?	?	-2.2%	.	.	?	.	16%
O=c1c2ccccc2nc(-c2ccc([N+](=O)[O-])cc2)n1-c1ccccc1	15%	-12%	-0.9%	-12%	14%	0%	15%	-15%
CCOC(=O)CNC(=O)CSc1nnc(Cn2c(=O)sc3ccccc32)n1C	.	-7%	-2.9%	2%	3%	.	-17%	3%
O=C(NCc1ccc(Cl)cc1)c1cccc(NC2=NC3CS(=O)(=O)CC3S2)c1 (centres undefined)	.	-6%	.	-2%	17%	.	-4%	.
CCc1ccc(S(=O)(=O)N/N=C\c2ccc3c(c2)OCO3)cc1	.	108%[activator]	.	-13%	11%	.	-10%	.
N#Cc1nc(COc2ccc(F)cc2)oc1N1CCN(Cc2ccccc2)CC1	?	-20%	0.4%	-35%	11%	-5%	-1%	-2%
O=c1c2cnn(-c3ccccc3)c2ncn1Cc1ccccc1	-10%	?	-1.7%	-8%	2%	?	0%	8%
Cc1ccc(Cn2ccc(NC(=O)c3cc(-c4cccc(Cl)c4)on3)n2)cc1	?	?	3.4%	-6%	-1%	1%	-4%	-12%
CCCCCCOc1ccc(N2C(=O)CC(N3CCC(C(=O)OCC)CC3)C2=O)cc1 (centres undefined)	25%	.	0.8%	-1%	5%	-1%	-26%	?
O=C(NCCC(=O)N1CCC2(CC1)NCCc1[nH]cnc12)c1ccc(Br)cc1	.	9%	.	-11%	-3%	.	-1%	.
Cn1c2ccccc2c2cnn(CC(=O)NCCCN3CCCCC3)c(=O)c21	-2%[46.1 µM]	-15%	-2.7%	.	.	7%[46.1 µM]	.	-7%
Cc1nc(-c2ccc(F)cc2)sc1CCNC(=O)c1ccccc1	.	11%	-5.7%	.	.	-3%[46.1 µM]	.	-13%
CS(=O)(=O)Nc1cccc(S(=O)(=O)N2CCN(C(=O)c3ccccc3)CC2)c1	?	-11%	.	-4%	-9%	14%	0%	.
CC(=O)Nc1ccc(S(=O)(=O)NCc2nnnn2-c2ccc(Cl)cc2)cc1	7%	-11%	.	.	6%	5%	1%	.
CS(=O)(=O)Nc1ccccc1C(=O)Nc1ccccc1Cl	8%	-3%	1.1%	-7%	-17%	16%	12%	5%
FC(F)Oc1ccc(N=C2SCC3CCCCN23)cc1 (centres undefined)	-5%[46.1 µM]	18%	.	-9%	5%	?	1%	.
Continuation:
SMILES	Marburg entry inh	StopGo reporter	Cruzain Triton	NS1 function inh	RE007 growth inh	Lassa entry inh	SARS PLpro yeast	Cruzain inh noDet
Cc1cc([N+](=O)[O-])ccc1NC(=O)CCC(=O)N1CCCC1	-11%[46.1 µM]	2%	.	2%	3%	-2%[46.1 µM]	5%	.
COc1ccc(OC)c(NC(=O)CSc2nnc(CNc3ccc(F)cc3)o2)c1	3%	-10%	-2.5%	-6%	7%	20%	-2%	5%
Cc1cccc(OCC(=O)NCc2ccccc2)c1	13%	15%	.	-1%	18%	-23%	-1%	.
O=C(NCCN1CCOCC1)c1cccc(NS(=O)(=O)c2ccc(Br)cc2)c1	6%	21%	.	.	7%	-1%	7%	.
Cn1nccc1NC(=O)Nc1cccc(Br)c1	.	44%[activator]	.	-3%	-3%	.	1%	.
CC(=O)Nc1c(C(=O)N2CCCCCC2)cnn1-c1ccccc1Cl	10%	-5%	1.1%	0%	5%	4%	-2%	-7%
CC(C)(C)NC(=O)NC(=O)COC(=O)C1=COCCO1	14%	8%	2.8%	9%	-4%	?	5%	-7%
O=C(Nc1ccccc1)c1ccccc1OCC(O)CN1C(=O)c2ccccc2S1(=O)=O (centres undefined)	-5%&-5%	0%	-0.6%	-34%	0%	3%	-2%	-11%
CCNc1nc(N2CCOCC2)nc(N(c2ccccc2)c2ccccc2)n1	-1%[46.1 µM]	-17%	-6.2%	-1%	2%	-6%	4%	6%
Cc1ccc(-n2cc(C(=O)Oc3ccc(F)cc3)c3ccccc3c2=O)cc1	.	-23%	-5.7%	.	.	?	.	-30%
CC(C)(C)C(=O)Nc1ccc(S(=O)(=O)Nc2ccccn2)cc1	-3%[46.1 µM]	22%	.	2%	-7%	5%[46.1 µM]	0%	.
Cc1cccc(C)c1NC(=O)CN(C)C(=O)CC1OC(=O)c2ccccc21 (centres undefined)	-1%[46.1 µM]	8%	.	.	13%	-12%	-2%	.
CCC(C)NC(=O)Cn1c(=O)n(-c2ccc(OC)cc2)c(=O)c2ccc(C(=O)NCc3ccc(C)cc3)cc21 (centres undefined)	1%[46.1 µM]	16%	.	.	-2%	10%	2%	.
CCCNC(=O)Cn1c(=O)cnc2ccccc21	-2%	-12%	-4.5%	4%	5%	-8%	5%	-4%
